E coli growth: E. coli growth inhibition; OD600 absorbance (no concentration beside the values); hit rate 0.21% among 330,000; Escherichia coli growth, OD600, 23 h; hits give low values;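 active = OD600 absorbance below the run mean of sample wells minus 3.6 SD, in any replicate, cut at about 0.56 in these data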;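 also: stock transfer was 300 nL into about 60 µL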
HNF4A DNA FP: change in binding of human HNF4 alpha to DNA; P41235; activity change, % at 10 µM; HNF4a-FITC DNA binding, fluorescence polarization, 1 h; hit rate 0.3% among 360,000; AID 1224865; in the data active = activity change above about 30%, passing the limit was not always enough;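 also: controls were the assay level and a saturating level of protein; the project sought stronger binding though the title names inhibitors; some compounds called inactive have numbers as strong as hits; positive values seem to mean higher polarization but the record does not say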
Target sequence (P41235 whole entry, looked up): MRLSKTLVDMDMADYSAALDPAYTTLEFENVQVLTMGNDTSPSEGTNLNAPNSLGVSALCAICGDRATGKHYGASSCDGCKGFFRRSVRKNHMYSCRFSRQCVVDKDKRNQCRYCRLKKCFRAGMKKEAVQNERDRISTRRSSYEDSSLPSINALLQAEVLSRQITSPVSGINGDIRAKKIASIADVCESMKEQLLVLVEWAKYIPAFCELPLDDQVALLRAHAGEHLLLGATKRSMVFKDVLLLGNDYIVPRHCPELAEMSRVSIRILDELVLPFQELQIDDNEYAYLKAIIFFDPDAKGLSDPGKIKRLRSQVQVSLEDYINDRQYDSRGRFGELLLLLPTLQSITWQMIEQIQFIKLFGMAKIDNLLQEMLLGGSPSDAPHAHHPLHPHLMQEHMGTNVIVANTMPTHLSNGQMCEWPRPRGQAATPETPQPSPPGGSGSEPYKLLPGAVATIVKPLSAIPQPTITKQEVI
Vif A3G: inhibitors of Vif binding to APOBEC3G peptide, primary screen, biochemical, TR-FRET, GST-Vif 1-94, biotin-A3G peptide, dose response retest (AID 1117319). hit rate 0.57% among 260,000. inhibition, %, or IC50 in µM where a hit was titrated. TR-FRET GST-Vif / biotin-A3G peptide binding; higher % means a stronger effect; test concentration not given here; strong numbers were not always called active;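 active = above the screen mean plus three standard deviations and confirmed in dose response; inconclusive = results disagree or hit not tested in dose response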;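 also: Vif residues 1-94 fused to GST binding biotinylated APOBEC3G peptide 110-148; 0% = full assay without inhibitor and 100% = GST in place of GST-Vif; retest series ran down from 100 µM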
Bfl-1 A1 inh: inhibitors of the anti-apoptotic protein A1, read as caspase activation. MEF A1-2A-BIM cells, Caspase-Glo 3/7 luminescence, 3 h; percent of clofoctol response, vehicle zero. caspase activation, % (test concentration not listed). hit rate 0.066% among 330,000. AID 2462;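 active = over half of replicate activation scores above 10%, or exactly half above 10 with the replicate mean above 10; inconclusive = replicate mean below 10 yet half the replicates above 10; inactive = over half of replicates below 10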;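 also: wells of about 30 µL received 50 nL stock; many hits fall short of the cut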
LANA-H2A inh: blocks KSHV LANA binding to histone H2A/H2B; hit rate 0.6% among 320,000; inhibition, % (no concentration beside the values); Q9QR71; cell-free LANA-H2A/H2B peptide, fluorescence polarization; AID 2629; in the data active = inhibition mostly above about 10%, no sharp cut-off; inactive = mostly below about 6.7%;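 also: stock transfer was 7.5 nL into about 10 µL; 0% = median of vehicle wells and 100% = median of positive control wells; one replicate is shown; the record names a cut of 25% in any replicate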
UCH37 inh: inhibitors of human deubiquitinating enzyme UCH37 | inhibition, % (no concentration beside the values) | purified proteasome/UCH37, Ub-AMC cleavage fluorescence | hit rate 0.33% among 330,000;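 active = mean of two replicates above 20%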;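 also: 0% = compound-free wells with enzyme and 100% = wells lacking proteasome; stock transfer was 100 nL into about 20 µL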
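Test system – human UCH37 enzyme supplied as purified proteasome complex · Incubation – 30 min preincubation with enzyme, 25 min cleavage at room temperature · Detection – AMC fluorescence from Ub-AMC cleavage, excitation 355 nm, emission 460 nm · Benchmarks – no-proteasome wells (full inhibition) and compound-free wells (no inhibition)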
Beta2AR agonist: activates human beta-2 adrenergic receptor causing internalization. P07550. response, % (no concentration beside the values). hit rate 0.43% among 340,000. Am2.2-beta2AR cells, FAP receptor internalization, flow cytometry; reference of the scale not given here. AID 504454;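 active = response above a set limit, near 3 SD of response in nonfluorescent compounds, cut at about 42% in these data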;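 also: stock transfer was 100 nL into about 11 µL; a reference agonist was the positive control; negative values mostly stem from fluorescent compounds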
Target sequence (P07550 whole entry, looked up): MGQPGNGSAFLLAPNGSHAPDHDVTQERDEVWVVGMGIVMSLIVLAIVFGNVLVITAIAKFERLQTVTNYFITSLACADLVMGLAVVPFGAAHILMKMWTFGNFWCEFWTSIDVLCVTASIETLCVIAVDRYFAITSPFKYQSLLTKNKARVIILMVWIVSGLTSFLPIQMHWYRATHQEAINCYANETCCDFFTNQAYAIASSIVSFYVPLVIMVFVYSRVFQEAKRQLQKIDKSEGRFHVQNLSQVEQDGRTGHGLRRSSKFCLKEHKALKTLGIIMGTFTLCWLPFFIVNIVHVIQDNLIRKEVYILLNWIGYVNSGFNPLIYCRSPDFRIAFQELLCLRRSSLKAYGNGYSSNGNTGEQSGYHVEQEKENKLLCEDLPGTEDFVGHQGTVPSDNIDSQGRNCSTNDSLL
Active calls of the source: *; i = inactive; ? = inconclusive; / = no result given; & = joins results of further samples.

No.	Molecule	E coli growth	HNF4A DNA FP	Vif A3G	Bfl-1 A1 inh	LANA-H2A inh	UCH37 inh	Beta2AR agonist
1	COC(=O)[C@H](Cc1ccccc1)NC(=O)Cn1cnc2c(NCc3ccccc3)ncnc21	0.677	0.7	/	/	/	0.5	-0.7
2	CN(C)S(=O)(=O)c1cccc(C(=O)Nc2ccccc2Cl)c1	0.711	0.8	5.6%	0.2	-3.9	5.2	-9.3
3	CC1=[N+](CC(=O)c2ccccc2)CCn2cccc21	0.674	2.0	13.2%	-0.1	-1.0	0.5	11.0
4	COC(=O)CSc1ncnc2c1sc1nc3c(cc12)COC(C)(C)C3	0.67	0.7	-11.3%	-2.0	-1.1	-1.6	4.7
5	Cc1ccc(N)c2c1OCCC2=O	0.621	-1.6	30.1%	0.8	0.8	2.7	8.2
6	C/C(=N\NC(=O)c1ccc(O)cc1)c1ccc2c(c1)OCCO2	/	1.7	0.3%	-1.2	-5.9	/	-6.3
7	CCN1CCN(c2cc(C)c3cc(NC(=O)c4cccnc4Cl)ccc3n2)CC1	0.711	2.8	3.6%	-0.3	-0.5	-7.5	3.0
8	Cc1cc2cc(CNC(=O)Cc3ccc([N+](=O)[O-])cc3)ccc2n1C	0.694	-3.4	-4.0%	-0.8	-5.4	1.8	-7.6
9	Cc1nn(CC(=O)Nc2ccc(Cl)cc2Cl)c(=O)c2ccccc12	0.642	-0.4	/	0.2	6.0	2.3	-2.8
10	CCC1=NN2C(=N)/C(=C\c3cccn3-c3ccc(OC)cc3)C(=O)N=C2S1	/	-1.7	/	0.8	2.7	6.6	1.0
11	COc1ccc(CCNC(=O)CSc2nc3ccccc3o2)cc1	0.692	-0.9	-1.3%	-0.2	-6.4	2.0	2.3
12	CC1CCN(S(=O)(=O)c2ccc(NC(=O)CN3CCOCC3)cc2)CC1	0.682	-2.0	3.0%	-0.2	0.1	-1.7	-0.5
13	Cc1c(NC(=O)c2ccc(Cl)c(S(=O)(=O)N3CCCCC3)c2)c(=O)n(-c2ccccc2)n1C	0.716	-1.9	/	0.6	-1.8	6.2	0.9
14	O=C(CSc1nc2ccccc2c(=O)n1CC1CCCO1)N1CCN(c2ccccc2)CC1 (stereo unspecified)	0.722	-0.4	2.2%	-0.6	-10.4	5.6	1.6
15	CCCCCCn1c(CN2CCC(C)CC2)nc2c1c(=O)n(C)c(=O)n2C	0.673	3.2	/	-0.1	0.5	-2.3	-15.6
16	S=c1[nH]nc(CCc2ccccc2)n1-c1ccc(Cl)cc1	0.657	2.2	24.7%	0.2	2.4	-2.2	-1.1
17	COc1ccc(Nc2ncnc3sccc23)cc1OC	0.647	-0.8	-9.4%	-1.0	-3.4	3.8	6.1
18	O=C(Nc1ccccc1)c1cc2ccccc2c(=O)s1	0.696	0.5	20.9%	0.1	/	5.0	-5.3
19	O=C(O)CC(NC(=O)C12CC3CC(CC(C3)C1)C2)c1ccc(F)cc1 (stereo unspecified)	0.684	0.9	-6.9%	-1.1	7.0	3.4	-21.9
20	COc1ccccc1CN1CC(C(=O)N2CCOCC2)CCC1=O (stereo unspecified)	0.705	-3.0	/	0.6	0.2	2.0	2.7
21	COC(=O)Cc1c(O)ccn(CCc2ccc(S(N)(=O)=O)cc2)c1=O	0.629	-0.9	-3.3%	-0.9	1.7	0.7	-10.6
22	CCC(=O)N1CCN(c2cc(N3CCN(C)CC3)c(F)cc2[N+](=O)[O-])CC1	0.679	1.8	-3.3%	0.8	-6.6	11.6	-13.6
23	O=C1CC(SCCc2nc3ccccc3[nH]2)C(=O)N1c1ccc(Cl)cc1 (stereo unspecified)	0.678	-1.4	2.4%	0.2	1.6	-0.7	-1.8
24	CN=C1SC(CC(=O)Nc2ccccc2F)C(=O)N1/N=C/c1ccc(O)c(OC)c1 (stereo unspecified)	/	1.0	-7.7%	0.0	2.9	/	4.7
25	COc1cc(F)cc(-c2ccc3c(c2)c(-c2cccs2)c(-c2cc(OC)cc(OC)c2)n3C)c1	0.732	7.9	/	-0.5	0.8	-49.4	3.5
26	CC(=O)C1C(c2ccc(O)cc2)NC(=O)NC1(O)C(F)(F)F (stereo unspecified)	0.714	-3.9	/	-0.6	-4.1	0.3	-3.6
27	COc1ccc(N2CCN(C(=O)CN3c4cccc5cccc(c45)S3(=O)=O)CC2)cc1	0.691	0.5	/	-0.7	2.7	-7.9	-14.5
28	CSc1nc2ccccc2n1CC(=O)Nc1ccc(C)c(C)c1	0.653	-2.1	1.3%	0.0	0.0	5.5	7.4
29	CCOC(=O)N1CCN(Cc2nc(-c3ccccc3)no2)CC1	0.722	-2.9	-5.5%	1.0	-13.0	0.7	-13.2
30	CCCc1[nH]n(-c2nc3ccccc3s2)c(=O)c1C=NCCCOC	0.695	3.8	19.4%	-0.8	-4.4	4.0	-5.6
31	O=C1/C(=C\c2cccs2)Sc2ccc3ccccc3c21	0.711	19.7	/	-5.9	-1.6	0.7	-43.1
32	COc1ccc(N(CC(=O)NC(C)C)S(=O)(=O)c2ccc(NC(C)=O)cc2)cc1	0.67	-0.1	16.6%	-0.2	-1.0	2.7	-5.5
33	COCCSc1ccccc1C(=O)NCc1ccco1	0.677	-2.7	4.7%	0.1	-7.1	3.1	-179.4
34	Cc1cc(C)cc(N(CC(=O)NCc2ccco2)C(=O)CCC(=O)Nc2ccccn2)c1	0.722	2.8	-5.6%&8.9%	/	/	2.4	-14.9
35	Cc1ccc(C(=O)COC(=O)c2nc(Cl)ccc2Cl)cc1	0.726	4.6	-2.8%	-0.3	0.4	3.5	-6.5
36	CCN(CC)S(=O)(=O)c1ccc(C(=O)OCC(=O)Nc2ccc(-c3nc4ccc(C)cc4s3)cc2)cc1	0.725	8.0	-8.8%	-4.9	-3.3	-6.7	0.7
37	Cc1[nH]nc(NCCO)c1[N+](=O)[O-]	/	-4.3	12.5%	0.4	3.2	/	8.3
38	Cc1nn(C)c(C)c1CNC(=O)c1nn2c(c1Cl)NC(c1cccs1)CC2C(F)(F)F (stereo unspecified)	0.715	-0.1	1.4%	0.3	-5.0	6.0	-2.5
39	CN(C)CC(=O)c1c(N)n(Cc2ccccc2)c(=O)n(C)c1=O	0.537*	-0.8	7.6%	0.5	/	6.2	-2.9
40	COc1ccc(S(=O)(=O)N2CCCCCC2)cc1NC(=O)CN1C(=O)NC(C)(c2ccc(C)cc2)C1=O (stereo unspecified)	0.708	5.0	-3.4%	1.0	-2.7	4.3	12.0
41	CCOC(=O)c1cc(-c2ccccc2C)n(CC2CC(c3cccc([N+](=O)[O-])c3)=NO2)n1 (stereo unspecified)	0.71	-0.3	/	0.0	-4.4	1.0	-5.2
42	COc1ccc(C)cc1NS(=O)(=O)c1ccc(Cl)nc1	0.694	3.1	-6.6%	2.0	-2.8	2.9	-6.5
43	Cc1cc(C)c(OCC(=O)OC(C)C(=O)NC2CC2)c(C)c1 (stereo unspecified)	0.703	1.9	-2.2%	-0.2	-3.6	5.1	-7.3
44	O=C(CCC(=O)Nc1ccc(Oc2ccccc2)cc1)NCCO	0.758	-3.2	-1.3%	-0.1	2.9	-2.3	-17.8
45	O=C(Nc1ccccc1)c1ccc(-c2ccc(Br)cc2)o1	0.704	0.1	4.0%	-0.8	3.0	4.0	23.2
46	COc1ccc2c(c1)C1NC(=S)NC(C)(O2)C1C(=O)Nc1ccc(C)cc1C (stereo unspecified)	0.645	-0.1	13.2%	1.7	8.6	3.9	30.4
47	CC1CCC2(CC1)NC(=O)N(CC(=O)Nc1sc3c(c1C(N)=O)CCC3)C2=O (stereo unspecified)	0.657	-14.9	?	0.3	4.4	-2.2	-11.2
48	O=C(OCC(=O)N1CCc2ccccc21)c1c2c(nc3ccccc13)CCCCC2	0.67	2.0	4.5%	-0.1	-5.6	2.3	0.6
49	CN(C(=O)c1cccc(NC(=O)Cc2ccc(NC(=O)C3CCN(C(=O)C4CCCC4)CC3)cc2)c1)C1CCC1	0.658	3.5	/	/	/	1.0	-6.7
50	Cn1c(=O)oc2cc(S(=O)(=O)NCCC(=O)NC3CCCc4ccccc43)ccc21 (stereo unspecified)	0.734	1.6	?	-0.5	-1.4	1.5	-6.9

Next part.
No.	Molecule	E coli growth	HNF4A DNA FP	Vif A3G	Bfl-1 A1 inh	LANA-H2A inh	UCH37 inh	Beta2AR agonist
51	Cn1cnnc1SCC(=O)NCCC1=CCCCC1	0.691	-2.1	/	1.5	-2.4	1.0	-0.2
52	O=C(CSc1nnc(-c2ccncc2)n1Cc1ccco1)Nc1nc(-c2ccccc2)cs1	0.788	-1.7	1.4%	1.0	-5.4	1.1	3.8
53	O=C1CCCC(O)=C1C1NCCc2ccccc21 (stereo unspecified)	0.669	-1.4	5.6%	0.7	-0.2	2.1	-7.8
54	C=CCn1c(N)c(-c2nc3ccccc3n2C)sc1=S	0.671	-1.3	3.3%	0.0	-2.1	-8.5	-4.8
55	O=C(Nc1cccc(-c2cn3ccccc3n2)c1)c1cc2ccccc2oc1=O	0.722	89.7	-2.6%	-0.7	4.6	2.6	4.1
56	Nn1c(COc2ccccc2F)nnc1SCC(=O)NC1CCCC1	0.686	-0.4	0.0%	0.9	7.7	0.6	7.2
57	CC1CC1C(=O)Nc1nc(-c2cccs2)c(-c2cccs2)s1 (stereo unspecified)	/	-0.7	9.4%	0.7	-0.9	/	-8.9
58	Clc1ccc(Cl)c(OCc2cc(-c3ccccc3Cl)on2)c1	0.734	-1.1	-5.6%	-0.5	10.0	3.4	-2.9
59	Cc1c(CC(=O)NCCCO)c(=O)oc2cc3c(cc12)CCC(C)(C)O3	0.655	-5.0	-5.0%	0.9	-0.7	i	-0.3
60	CCN(CC)S(=O)(=O)c1cccc(-c2n[nH]c(=S)n2C)c1	0.686	-4.4	0.6%	0.3	-6.1	-0.3	0.3
61	CCOc1ccc(S(=O)(=O)NCCC(=O)NCCCSc2ccccc2)cc1	0.681	2.0	-2.8%	0.4	0.9	0.0	5.7
62	CC1Nc2ncnc(N3CCc4ccccc4C3)c2N(Cc2ccc(Cl)cc2)C1=O (stereo unspecified)	0.681	30.9	/	0.1	1.0	-1.9	-1.0
63	Cc1ccc(S(=O)(=O)NCCc2ccccc2)cc1	0.671	1.8	?	0.4	-0.5	2.1	1.0
64	Cc1nn(CCC(=O)NCc2ccc(OC(C)C)cc2)c(=O)c2nn(-c3ccccc3)c(C)c12	0.673	-3.2	/	0.6	-2.3	-0.2	-6.9
65	O=C(Nc1ncn[nH]1)c1cc(S(=O)(=O)Nc2cccc(C(F)(F)F)c2)ccc1Cl	0.657	2.7	-5.2%	0.3	1.1	2.6	12.0
66	CCOC(=O)N1CCN(C(=O)CNC(=O)c2ccc(Br)cc2)CC1	0.709	-1.1	0.0%	0.3	-8.6	3.4	1.2
67	CNC(=O)c1cccc(NC(=O)C(C)c2ccc3cc(OC)ccc3c2)c1 (stereo unspecified)	0.64	3.6	/	0.7	2.5	6.1	-1.7
68	C[C@H]1COC(=O)[C@H](Cc2ccc(F)cc2)C/C=C\C[C@H](CC(=O)NCCO)C(=O)N1	/	-3.6	/	-0.4	-6.3	4.7	-6.1
69	CCOC(=O)c1c(C)[nH]c(C(=O)CN2CCOCC2)c1C	0.722	-1.7	-6.0%	0.1	2.3	1.1	5.0
70	COc1ccc2oc(N)c(C=O)c(=O)c2c1	0.692	6.4	3.1%	-0.3	1.7	-0.6	6.3
71	Cc1ccc(N/C(CSC(N)=O)=N/S(=O)(=O)c2ccccc2)cc1	/	-3.6	30.4%	-0.9	-3.1	/	-8.4

Compound activity from PubChem.
